HIV Env fusion – HIV envelope-mediated fusion inhibition. HeLa-JRFL Env/CEM21 cell fusion, luciferase. inhibition, % at 12.3 µM. 360,000 compounds, 1.1% hits;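 active = mean replicate inhibition score of at least 50 and every replicate individually at or above 50; inconclusive = only one of the two criteria met; inactive = mean below 50 and not all replicates reaching 50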;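 note: 0% = plate neutral controls and 100% = maraviroc near 300 nM; one replicate is shown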
PABP FP inh – PABP-poly(A) binding inhibition; PABP-poly(A) RNA binding, fluorescence polarization; 290,000 compounds, 1% hits; inhibition, % at 35 µM; AID 2014;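 active = 50% or more with normal probe brightness, or confirmed in later tests; inconclusive = above 50% with abnormal brightness, or retests that disagree; inactive = below 50% or failed in later tests; about a fifth of its hits are not listed in these tables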;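 note: calls also rest on retests at 20 µM and on dose response follow-up; controls were probe without protein and protein plus probe with vehicle; some compounds called inactive have numbers as strong as hits; many hits fall short of the cut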
Target sequence (P11940 whole entry, looked up): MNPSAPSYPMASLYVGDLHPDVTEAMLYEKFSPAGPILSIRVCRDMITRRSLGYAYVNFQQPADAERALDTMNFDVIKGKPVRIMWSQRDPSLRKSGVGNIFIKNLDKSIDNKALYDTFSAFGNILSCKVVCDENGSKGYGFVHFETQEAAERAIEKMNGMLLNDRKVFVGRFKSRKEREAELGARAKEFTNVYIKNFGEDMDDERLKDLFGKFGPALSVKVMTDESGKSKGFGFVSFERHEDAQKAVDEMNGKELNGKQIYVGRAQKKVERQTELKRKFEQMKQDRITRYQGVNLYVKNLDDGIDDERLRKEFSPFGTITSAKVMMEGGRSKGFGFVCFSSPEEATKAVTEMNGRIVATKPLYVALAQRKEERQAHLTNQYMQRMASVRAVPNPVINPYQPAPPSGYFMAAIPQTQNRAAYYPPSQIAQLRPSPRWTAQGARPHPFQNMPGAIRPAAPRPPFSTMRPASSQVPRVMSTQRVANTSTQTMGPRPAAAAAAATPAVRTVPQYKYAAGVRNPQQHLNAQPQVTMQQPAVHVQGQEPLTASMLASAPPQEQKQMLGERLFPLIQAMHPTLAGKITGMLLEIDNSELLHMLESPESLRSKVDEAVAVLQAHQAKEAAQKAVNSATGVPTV
CSC inhib – blocks cancer stem cells | cancer stem cell-like cells viability, luminescence | inhibition, % at 7.5 µM | 300,000 compounds, 1.1% hits | AID 2717;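 active = mean at 75% or more and at least half the replicates too; inconclusive = mean and replicates disagree; tested in HMLE shEcad cells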;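 note: 0% = median of negative and 100% = median of positive control wells; the first replicate is given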
MT1-MMP act inh – inhibitors of human MT1-MMP activation; GFP/RFP ratio change, % at 20 µM; HT1080 RFP-PRO-GFP cells, GFP/RFP ratio fluorescence, overnight; percent of plate control window, DMSO zero; P50281; 360,000 compounds, 0.061% hits;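 active = GFP/RFP ratio change of at least 30% with cell ATP level not reduced by more than half and red fluorescence within 50% of control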; note: strong numbers were not always called active
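Test system: HT1080 cells expressing an RFP-PRO-GFP fluorescent reporter construct / Compound dosing: single-point 20 µM compound, 1% DMSO / Schedule: cells overnight before dosing, compound overnight, 37 °C, 5% CO2 / Evaluation: GFP/RFP fluorescence ratio / Control set: DMSO and RFP-L50D-GFP cell wells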
Rce1 inhib – yeast Ras-converting enzyme inhibition. Q03530. yeast membranes, quenched prenylated peptide cleavage fluorescence. calls only. 290,000 compounds, 0.27% hits. AID 2563;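 active = fall in fluorescence gain of 50% or more versus controls, with final raw signal at or below 3038400; inconclusive = same 50% fall but final raw signal above 3038400; inactive = fall in fluorescence gain under 50%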;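 note: plate controls were neutral control wells for no effect and wells lacking membranes for full effect; tested at 10 µM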
Target sequence (Q03530 whole entry, looked up): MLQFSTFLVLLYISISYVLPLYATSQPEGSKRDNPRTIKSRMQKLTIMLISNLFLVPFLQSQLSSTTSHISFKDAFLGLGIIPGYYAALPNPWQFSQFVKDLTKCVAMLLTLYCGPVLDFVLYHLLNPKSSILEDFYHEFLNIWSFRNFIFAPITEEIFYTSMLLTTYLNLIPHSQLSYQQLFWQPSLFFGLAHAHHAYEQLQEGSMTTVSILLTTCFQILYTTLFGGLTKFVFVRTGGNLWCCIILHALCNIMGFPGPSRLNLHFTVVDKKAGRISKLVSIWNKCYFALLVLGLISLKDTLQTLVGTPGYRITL
Yeast UUG start – alters start codon recognition fidelity in yeast; S. cerevisiae UUG-firefly luciferase reporter, luminescence/redox ratio; AID 602363; 350,000 compounds, 0.13% hits; activity score, % at 18.7 µM;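 active = replicate mean at a twofold rise or more, about +100% in these data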;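 note: firefly luciferase made from a UUG start codon reports start codon fidelity; reporter light over untreated wells divided by growth signal over untreated wells; some hits fall short of that in this replicate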
eIF4H FP inh – inhibitors of RNA binding by human eIF4H. eIF4H fluorescence polarization binding assay. inhibition, % at 35 µM. 290,000 compounds, 0.94% hits;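 active = 50% or more with normal probe brightness, or confirmed in later tests; inconclusive = above 50% with abnormal brightness, or retests that disagree; inactive = below 50% or failed in later tests; about a fifth of its hits are not listed in these tables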;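 note: calls also rest on retests at 20 µM and on dose response follow-up; 0% = protein and probe with vehicle and 100% = probe without protein; strong numbers were not always called active; many hits fall short of the cut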
eIF4H FP inh retest – recorded beside eIF4H FP inh, whose call it bears; inhibition, %; compound at 20 µM; confirmation average;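 mean of two retest wells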
PABP FP inh retest – further read-out of PABP FP inh, marked with its call; inhibition, %; compound at 20 µM; confirmation repeats;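 mean of two retest wells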
MT1-MMP act inh RFP – also measured in MT1-MMP act inh; calls as there; RFP signal change, %; measured here: RFP expression control read;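 0 = vehicle wells; hits needed this value within 50% of zero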
* marks the source's active call; other numbers are inactive results; i = inactive; ? = inconclusive; . = no result given. Rows are unselected; 2.9% or so of the library scored in one or more.

SMILES	HIV Env fusion	PABP FP inh	CSC inhib	MT1-MMP act inh	MT1-MMP act inh RFP	Rce1 inhib	Yeast UUG start	eIF4H FP inh	others
O=C(NCCCn1ccnc1)c1cc2nc(-c3ccc(Br)cc3)cc(C(F)(F)F)n2n1	1.1	-2.4	.	5.3	-1.3	.	-11.0	9.9
O=C(CCc1nc2ccccc2c(=O)[nH]1)NNC(=O)c1cccc(Cl)c1	-6.0	.	-3.5	-11.3	-0.9	i	-7.9	.
CC(C)C(=O)NC(=S)N(Cc1ccccc1)Cc1ccccc1	-6.5	-0.8	-7.0	0.0	0.9	.	.	0.7
CCOC(=O)N/N=C/c1c(C)nn(-c2ccccc2Cl)c1Cl	-25.0	1.2	-3.8	-0.4	-2.5	i	.	0.6
Cc1cccc2[nH]c(CN(C)Cc3nc(CC4CC4)no3)nc12	4.9	-8.8	4.2	1.6	2.4	i	-16.3	-13.4
COc1ccc(-n2nc(C(N)=O)nc2-c2ccccc2)cc1	10.8	26.6	-17.1	-1.5	-3.0	i	2.7	-1.2
Cc1ccccc1C(=O)N1CCN(c2ccccn2)CC1	.	10.4	-23.9	3.5	-0.9	i	-9.1	8.2
O=C(Nc1ccc(-c2ccc3nncn3n2)cc1)C1CCCC1	-8.4	-13.1	-24.8	11.7	8.7	i	6.9	1.7
CC(C)Cc1nnc(NC(=O)CCC(=O)N2CCN(Cc3ccc(Cl)cc3)CC2)s1	35.0	9.2	-12.4	-1.2	-23.5	i	.	-5.4
CC(NC(=O)Cn1c(=O)[nH]c2ccsc2c1=O)C12CC3CC(CC(C3)C1)C2 (stereo unspecified)	28.4	-2.8	-17.8	-0.1	-3.0	i	-5.7	6.5
CC(C)(C)c1cnnn1-c1ccc(-c2csc(N)n2)cc1	.	-3.8	-11.9	5.0	3.5	i	-10.1	-10.0
Cc1ccc(C)c(NC(=S)N2CCCC2)c1	22.5	0.5	-11.2	-3.4	-1.4	i	-32.0	11.7
O=c1cc(O)nc(SCc2ccc(Cl)cc2)[nH]1	4.2	8.5	-5.9	-1.4	0.5	i	-15.1	0.5
Cn1c(=O)c2c(nc(NCCc3ccccc3)n2Cc2ccc(F)cc2)n(C)c1=O	25.4	10.4	41.4	-14.0	-19.3	i	-10.4	-0.6
Cc1cccc(C(=O)Nc2ccc(NC(=O)c3ccccc3)cc2)c1	26.0	7.9	-9.6	5.0	2.4	i	-1.8	10.7
O=Cc1ccc(Oc2cc(-c3ccccc3)nc(-c3ccccc3)n2)cc1	-19.1	10.0	99.6*	-4.2	-1.2	i	-13.1	-8.8
CC(NC(=O)COC(=O)/C=C/c1ccc([N+](=O)[O-])cc1)c1ccccc1 (stereo unspecified)	19.4	?	.	4.8	2.9	i	.	0.6
CCn1c(SCC(=O)Nc2cccc(NC(=O)c3ccco3)c2)nnc1-c1cccs1	.	13.9	-4.3	2.2	-5.1	i	-23.0	-4.5
CCCc1c(C)nc2scc(-c3ccc(Cl)cc3)n2c1=O	-22.7	.	.	-3.7	0.2	.	-14.7	.
CS(=O)(=O)N(CC(=O)NCc1ccncc1)Cc1ccc(Cl)cc1	.	-1.6	.	-4.3	-1.0	.	-25.0	-1.7
COc1ccc(-c2nn(CC(=O)Nc3ccc(Cl)c(Cl)c3)c(=O)c3ccccc23)cc1	.	-1.3	-8.4	-0.3	-0.5	i	.	-10.2
COc1ccc(C2CC(c3ccc(C)o3)=NN2C(C)=O)cc1 (stereo unspecified)	.	-5.5	.	0.1	-0.3	i	.	-1.5
COc1ccc(-n2nc(C)c3c(=O)c4c([nH]c32)CCCC4)cc1	0.0	7.3	0.6	1.1	-0.2	i	-6.6	-20.6
Cc1cccc(CCNC(=O)CN(C)S(=O)(=O)c2cnc[nH]2)c1	-14.4	?	-1.1	-0.9	2.4	i	-7.7	-9.6
CCC(CC)C(=O)N1CCN(c2ccccc2)CC1	-5.6	11.4	-12.3	0.3	-3.9	i	.	-2.6
Other compounds.
SMILES	HIV Env fusion	PABP FP inh	CSC inhib	MT1-MMP act inh	MT1-MMP act inh RFP	Rce1 inhib	Yeast UUG start	eIF4H FP inh	others
CCc1ccccc1N1C[C@@]23C=C[C@@H](O2)C(C(=O)OCC(C)C)[C@H]3C1=O (stereo partly specified)	-6.8	-3.0	-5.7	2.7	5.7	i	-9.7	2.1
COC(=O)c1cnc(Nc2ccc(Cl)cc2)c([N+](=O)[O-])c1	-2.7	-6.4	-11.9	5.3	12.4	i	-10.1	-6.4
Nc1c(C(=O)N2CCCCC2)sc2nc3c(cc12)CCCC3	-63.4	-3.5	5.1	-2.4	-2.9	.	27.6	1.5
CCCC(=O)N1CCC1(C)C(=O)NS(=O)(=O)c1ccccc1 (stereo unspecified)	27.7	.	.	0.8	-0.1	.	-14.5	.
COc1ccc(/C(C)=N/NC(=O)CN(c2ccc(OC)cc2)S(=O)(=O)c2ccccc2)cc1	-4.3	-0.6	-8.2	3.9	4.8	i	-8.2	2.4
Cc1ccc(NC(=O)CSc2nnc(Cc3csc(C)n3)o2)cc1	.	.	2.2	1.0	5.4	.	-7.5	.
CC1CC(CC(=O)NC(=S)Nc2ccccc2Cl)C(=O)O1 (stereo unspecified)	0.7	9.7	-3.7	-3.0	1.5	i	-9.4	15.7
Cc1c(N=C/C=C/c2ccccc2)c(=O)n(-c2ccccc2)n1C	12.1	-1.6	-3.1	-4.1	1.4	i	-12.9	0.2
Cc1cccc(C)c1N1C(=O)CN(Cc2ccccc2)C1=S	25.3	8.2	14.3	-4.3	-4.3	i	-13.8	-6.5
CCOc1ccc(C2C(C(=O)c3ccco3)=C(O)C(=O)N2CCN(C)C)cc1 (stereo unspecified)	.	0.3	.	.	.	i	.	1.4
COC(=O)c1[nH]c(C)c(/C(O)=C2\C(=O)C(=O)N(CCN(C)C)C2c2cccc(OC)c2OC)c1C (stereo unspecified)	-59.0	2.6	-6.3	8.7	5.8	i	10.4	-1.9
CCOC(=O)C1C(=O)CC(C)(O)C(C(=O)OCC)C1c1ccco1 (stereo unspecified)	-53.9	-1.0	5.6	-5.4	3.2	i	-15.9	1.9
O=C1NCCN/C1=C\C(=O)c1ccc(Cl)cc1	-53.8	5.7	-7.6	4.5	-3.2	i	-11.3	-1.2
C=CCOC(=O)C(C(=O)Cc1ccccc1)c1ccccc1 (stereo unspecified)	5.0	.	.	0.7	-1.5	.	-2.1	.
CCCn1cnc2sc(CC)cc2c1=O	.	6.8	-1.6	0.2	3.5	i	-19.0	57.5*	eIF4H FP inh retest=80.4*;PABP FP inh retest=4.6
CSc1nc(-c2ccc(Cl)cc2)nc(N)c1C#N	-210.1	8.8	-20.4	1.2	2.8	i	-12.6	-9.9
Cc1cc(C)cc(NC(=S)NCCN(C2CCCCC2)C2CCCC2)c1	-3.0	-2.6	10.2	0.7	4.7	i	.	-9.7
Cc1ccc(NC(=O)C2(C)CCN2C2Cc3ccccc3C2)cc1 (stereo unspecified)	-18.2	.	.	-1.2	-0.2	.	-15.1	.
Cc1c(NS(=O)(=O)c2ccc3c(c2)NC(=O)CC(=O)N3)cccc1[N+](=O)[O-]	-11.8	4.3	-4.4	-4.8	4.2	i	.	-9.7
COc1cc(=O)oc(CCC(C)O)c1C (stereo unspecified)	10.0	.	.	5.7	3.7	.	-17.0	.
C(=N\c1nc2ccccc2[nH]1)/c1cccs1	.	-5.9	-5.2	1.6	8.7	i	-22.1	-4.3
C#CCOC(=O)Nc1cnccc1C(F)(F)F	3.0	-2.6	-5.9	-0.7	0.1	i	-14.2	-3.1
O=C1CCCN1CCCNC(=S)Nc1ccc(F)cc1	15.2	-2.4	-9.1	4.8	8.1	i	.	0.7
Cc1ccc(Oc2coc3cc(O)ccc3c2=O)cc1	-19.7	-3.1	-3.5	-3.7	-1.4	i	5.7	-1.3
CC(=O)Nc1ccc2c(c1)N(S(=O)(=O)c1cccs1)CCC2	-3.9	.	.	5.8	5.1	i	-19.9	.
Other structures.
SMILES	HIV Env fusion	PABP FP inh	CSC inhib	MT1-MMP act inh	MT1-MMP act inh RFP	Rce1 inhib	Yeast UUG start	eIF4H FP inh	others
COc1ccc(OC)c(NC(=O)CSc2nnc(-c3ccco3)o2)c1	.	-9.8	-12.0	-0.5	-0.4	i	-15.8	-4.3
CCc1sc(C(=O)Nc2ccc3c(c2)OCO3)cc1C	-10.5	.	31.3	5.0	2.8	.	-19.7	.
O=C(CCNC(=O)Cn1ccc2ccccc2c1=O)NCc1ccccn1	-7.8	-2.8	-3.9	1.9	2.3	i	.	-5.3
COc1cc(CC(=O)OCC(=O)c2c[nH]c3ccccc23)cc(OC)c1OC	-184.3	.	36.0	6.1	4.2	.	-12.4	.
O=C(N/N=C1\CC(c2ccccc2)Oc2ccccc21)c1ccc(O)cc1 (stereo unspecified)	14.0	-4.2	11.9	0.3	3.5	i	-0.2	-2.7
CCC(C)[C@H](N)c1cn([C@@H](Cc2ccc(O)cc2)C(=O)N2CCNCC2)nn1 (stereo partly specified)	18.2	7.9	12.3	6.5	7.4	i	-10.3	3.8
Cn1c2ccccc2c2cc(C(=O)NNS(=O)(=O)c3ccc(F)cc3)sc21	-24.6	-9.4	20.7	-5.8	-5.9	i	-7.0	-5.8
CCN(CC)CCCC(C)n1c2nc(=O)[nH]c(=O)c-2nc2cc(Cl)ccc21 (stereo unspecified)	-9.2	.	.	-121.5	4.1	.	-86.8	.
COc1cc(CN2CCCC(C(=O)c3ccc4c5c(cccc35)CC4)C2)cc(OC)c1O (stereo unspecified)	55.9*	62.7	1.7	-3.6	-1.3	i	.	97.6	eIF4H FP inh retest=-2.9;PABP FP inh retest=7.6
Cc1nnc(NC2=NCCC2)s1	.	7.5	-2.1	1.5	3.2	i	-5.3	-11.3
CN(C)S(=O)(=O)c1ccc(N2CCCC2)c(C(=O)N2CCN(S(=O)(=O)c3ccc(F)cc3)CC2)c1	-10.8	.	7.4	-3.9	1.6	i	-2.9	.
COc1ccc(-n2ncc3c2CC(C)(C)CC3NC(=O)CCN2CCCCC2=O)cc1 (stereo unspecified)	-8.3	-0.9	8.0	2.5	3.8	i	-3.8	-1.2
COc1ccc([C@H]2CC(=O)C=C(c3ccc(OC)c(OC)c3)C2)cc1	13.7	.	2.1	-1.0	-5.9	.	-10.8	.
COCC(=O)OCC(=O)Nc1cc([N+](=O)[O-])ccc1Cl	9.7	1.7	.	0.3	-0.1	.	.	1.5
COCC1CCCN(C(=O)c2cc(COc3ccc(C(C)=O)cc3)on2)C1 (stereo unspecified)	-47.8	33.3	-0.1	-1.6	1.5	i	-14.6	5.3
O=C(NN=C1CCN(Cc2ccccc2)CC1)c1cccc(S(=O)(=O)Nc2ccccc2Cl)c1	18.9	-13.2	-2.8	1.1	1.9	i	-17.1	-4.4
Cc1ccc2c(c1)N(CC(=O)N1CCCCCC1)C(=O)C(C)O2 (stereo unspecified)	19.9	-6.1	-6.2	-2.9	2.0	i	-10.7	-5.0
Cc1noc(C)c1S(=O)(=O)N(CC(=O)N1CCn2c1nc1ccccc12)c1ccc(C(C)C)cc1	5.8	0.6	-11.3	-3.5	0.7	i	3.7	1.5
Cc1cc(C)cc(NC(=O)c2sc3nc4n(c(=O)c3c2C)CCC4)c1	-9.6	-9.5	-10.3	4.5	-3.7	i	-11.9	0.9
N/C(=N\OC(=O)CCCc1ccccc1)c1cccnc1	3.5	3.8	5.6	-3.5	-3.7	i	-7.6	-1.6
